Compound activity deposited in PubChem BioAssay by National Center for Advancing Translational Sciences (NCATS).
Marburg entry inh: Marburg virus entry inhibition; Marburg virus pseudotyped entry inhibition, cell reporter; control for the full effect not named in the record; about a third of the inactives were read at about 46 µM; Potency, µM (top dose mostly 37.8 µM), for inactives: at the highest dose activity change, negative = inhibition, usual class: inhibitors; 1.8% of 300,000 active; AID 540276; active = well fitted inhibition curve with a large enough effect; inconclusive = small, poorly fitted or top-dose-only effect, or effect the other way; inactive = flat fitted curve, though single readings scatter; tested in HEK293 cells; about a fifth of its hits are not listed in these tables; note: % is set by controls: 0 for no effect and ±100 for the full control effect; luciferase read-out
SARS PLpro yeast: blocks SARS-CoV papain-like protease in a yeast assay. S. cerevisiae expressing SARS-CoV PLpro, growth rescue; control for the full effect not named in the record. Potency, µM (top dose mostly 32.9 µM), inactives show at the highest dose activity, positive = growth rescue. 0.19% of 330,000 active. AID 485353; note: 0% is about no effect; nearly all actives have a fitted effect of over 55% in size; growth read by luminescence after 48 h
Lassa entry inh: inhibitors of Lassa virus binding or cell entry | Lassa virus pseudotype entry inhibition, cell reporter; control for the full effect not named in the record | Potency, µM (titrated, usually from 37.9 µM), without a hit: at the highest dose activity change, negative = inhibition, usual class: inhibitors | 1.2% of 300,000 active | AID 540256; active means well fitted inhibition curve with a large enough effect; inconclusive means small, poorly fitted or top-dose-only effect, or effect the other way; inactive means flat fitted curve, though single readings scatter; tested in HEK293 cells; note: % is set by controls: 0 for no effect and ±100 for the full control effect; nearly all actives have a fitted effect of over 50% in size; luciferase read-out
RE007 growth inh: less growth of the S. pombe RE007 Vpr strain. S. pombe RE007 Vpr strain, BacTiter-Glo ATP luminescence, 24 h; control for the full effect not named in the record. Potency, µM (highest dose often 92.2 µM), inactives show top-dose activity change, negative = less growth. 0.21% of 360,000 active. AID 651644; active = well fitted falling curve with a large enough effect; inconclusive = small, poorly fitted or top-dose-only effect; inactive = no such curve, though single readings can be large or run the other way;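 note: % is set by controls: 0 for no effect and ±100 for the full control effect; nearly all actives have a fitted effect of over 50% in size; the assay follows cell death caused by Vpr and the record does not say whether a fall means rescue or toxicity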
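Fission yeast strain RE007, carrying one chromosomally integrated HIV-1 vpr copy, was seeded at OD 0.01 in PMG+AL medium with 23 nL pinned compound. After 24 h at 30 °C and 99% humidity, viability was read by BacTiter-Glo luminescence.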
Cruzain noTriton: cruzain (T. cruzi) inhibition without detergent | AID 1476 | 2.3% of 200,000 active | P25779 | purified cruzain, Z-FR-AMC fluorescence, no detergent | Potency, µM, for inactives: max response, negative = inhibition, most hits filed as inhibitors; active = well fitted curve in the direction sought with a large enough effect; inconclusive = small, poorly fitted or top-dose-only effect, or another doubt; inactive = no such curve, though single readings can be large; an effect the other way counts as inactive or inconclusive;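 note: plate controls were enzyme without inhibitor for no effect and buffer without enzyme for full effect; nearly all actives have a fitted effect of over 40% in size; top concentration of the series not given in the record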
Target sequence (P25779 123-467 limits assumed): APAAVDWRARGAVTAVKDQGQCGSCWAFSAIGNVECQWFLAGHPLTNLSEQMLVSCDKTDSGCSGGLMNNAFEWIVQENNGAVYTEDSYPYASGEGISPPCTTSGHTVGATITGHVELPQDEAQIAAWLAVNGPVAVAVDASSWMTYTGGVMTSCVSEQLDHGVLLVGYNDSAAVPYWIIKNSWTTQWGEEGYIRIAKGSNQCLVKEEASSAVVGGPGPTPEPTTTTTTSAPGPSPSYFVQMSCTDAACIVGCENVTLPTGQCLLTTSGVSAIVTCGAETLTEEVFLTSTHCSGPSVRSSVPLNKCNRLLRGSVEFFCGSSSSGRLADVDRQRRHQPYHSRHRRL
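Detergent-free condition (0.00005% Triton X-100) in acetate buffer pH 5.5 with DTT. 1.5 nM enzyme and compound were pre-mixed 15 min, then 2 uM Z-FR-AMC substrate added; reaction progress from fluorescence change between first and third reads (60 s).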
Cruzain Triton: cruzain (T. cruzi) inhibition with detergent | P25779 | purified cruzain, Z-FR-AMC fluorescence, 0.01% Triton | Potency, µM, inactives show max response, negative = inhibition, most hits filed as inhibitors | 0.43% of 200,000 active | AID 1478; active = well fitted curve in the direction sought with a large enough effect; inconclusive = small, poorly fitted or top-dose-only effect, or another doubt; inactive = no such curve, though single readings can be large; an effect the other way counts as inactive or inconclusive;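 note: plate controls were neutral wells for no effect and buffer without enzyme for full effect; nearly all actives have a fitted effect of over 40% in size; top concentration of the series not given in the record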
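15 min RT preincubation of 1.5 nM cruzain with compound, then 2 uM Z-FR-AMC added; kinetic AMC fluorescence, 60 s delta. Triton X-100 0.01%, pH 5.5.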
2A StopGo: FMDV 2A StopGo reporter, luciferase signal | human cells with a luciferase reporter of 2A StopGo recoding; control for the full effect not named in the record | Potency, µM (series often up to 57.9 µM), for inactives: top-dose signal change, negative = less light | 1.2% of 410,000 active | AID 1159524; active = well fitted falling curve with a large enough effect; inconclusive = small, poorly fitted or top-dose-only effect; inactive = no such curve, though single readings can be large or run the other way; tested in HEK293T cells; note: % is set by controls: 0 for no effect and ±100 for the full control effect; nearly all actives have a fitted effect of over 45% in size; luciferase light after 4 h
NS1 inh: inhibitors of influenza NS1 protein function; S. cerevisiae slowed by influenza A NS1, growth recovery by OD600; Potency, µM (series often up to 46.1 µM), for the others: top-dose activity, positive = more growth; 0.4% of 270,000 active; AID 2326; note: actives are rising curves; nearly all actives have a fitted effect of over 50% in size
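In this qHTS, NS1 from influenza A is expressed in budding yeast, where it slows growth. Cells are switched from glucose to 2% galactose medium (pH 6.0, -URA), treated with compound, and growth recovery is read at OD600.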
* = called active by the depositor; u = inconclusive; x = no result given; [ ] = remark or other dose. Unless noted, calls come from the whole dose curve; as a rule, active means well fitted rising curve with a large enough effect; inconclusive means small, poorly fitted or top-dose-only effect; inactive means no such curve, though single readings can be large or run the other way. Potency is the fitted concentration of half-maximal effect.

| SMILES | Marburg entry inh | SARS PLpro yeast | Lassa entry inh | RE007 growth inh | Cruzain noTriton | Cruzain Triton | 2A StopGo | NS1 inh |
| --- | --- | --- | --- | --- | --- | --- | --- | --- |
| O=C(O)Cc1nn(Cc2ccc(Cl)cc2)c(=O)c2ccccc12 | u | 0% | -10% | -9% | x | x | -8% | 5% |
| Cc1c(C(=O)NCc2cccnc2)oc2c1C(=O)CC(C)(C)C2 | -1% | 5% | u | 0% | -4% | 2.6% | -18% | 7% |
| O=C(Nc1ccccc1)N1CCN(c2nc3ccccc3s2)CC1 | 9% | -17% | 7% | 1% | -10% | -5.4% | u | -41% |
| COc1cc(OC)cc(C(=O)NC(C(=O)N2CCc3ccccc3C2)C(C)C)c1 (stereo unspecified) | 11µM* | -5% | u | 2% | x | x | 14% | -15% |
| COc1ccc(OCC2CCNCC2)cc1 | x | -2% | x | -3% | x | x | -20% | 6% |
| Cc1cc(C(=O)N2CCN(c3ccc([N+](=O)[O-])cc3)CC2)n[nH]1 | x | 0% | x | -9% | x | x | -10% | 8% |
| COc1ccc(OC)c(CCNC(=O)c2cc3cccc4c3n2CC(C)S4)c1 (stereo unspecified) | x | x | -11%[46.1 µM] | x | -29% | -9.9% | -21% | x |
| CC(C)N1CC(C(=O)Nc2ccccc2)CC1=O (stereo unspecified) | 11% | 7% | 2% | -2% | -4% | -0.3% | 0% | 9% |
| O=C(COc1cccc(Oc2ccccc2)c1)Nc1ccc(SC(F)F)cc1 | -29% | 1% | -26% | 8% | -20% | 1.2% | x | 0% |
| Cc1noc(C)c1CSc1ccccc1C(=O)OC(C)C(N)=O (stereo unspecified) | -3%[46.1 µM] | 11% | 14% | 9% | x | x | 1% | 1% |
| CC(=O)Nc1ccc(Nc2nc3ccc(Cl)cc3n3cnnc23)cc1 | u | x | 21%[46.1 µM] | x | 9% | -0.9% | -13% | x |
| N#C/C(=C\c1cc(Cl)ccc1O)C(=O)NC1CCCCC1 | u | -10% | 5% | 11% | -12% | 2.2% | 33%[activator] | 6% |
| CCCCCCc1cc2cc(-c3cn4c(n3)sc3cc(OC)ccc34)c(=O)oc2cc1O | x | x | 17%[46.1 µM] | x | 10% | 2.9% | -29% | x |
| C=CCn1c(N)c(-c2nc3ccccc3n2C)sc1=S | 0% | -3% | -17%[14.3 µM] | 0% | -9% | -3.0% | -2% | 4% |
| CC(=O)c1sc(NC(=O)CCNC(=O)c2ccco2)nc1-c1ccccc1 | x | 3% | x | -9% | x | x | 0% | 6% |
| O=[N+]([O-])c1ccc(O)c(/C=N/NC(=S)Nc2ccc(Cl)cc2Cl)c1 | u | 9% | u | 1% | x | x | -13% | -4% |
| Cc1c(C(=O)OCC(=O)NC2CC2)oc2ccc(Br)cc12 | 12%[46.1 µM] | 0% | 4% | -8% | x | x | -5% | x |
| O=C(Nc1ccc([N+](=O)[O-])cn1)c1ccc(Br)o1 | u | -8% | 0% | -15% | -8% | -4.5% | 11% | 2% |
| S=c1[nH]nc(Cc2ccc(Cl)cc2)n1-c1ccc2c(c1)OCCO2 | x | 1% | x | 2% | x | x | 4% | 2% |
| Cc1cc(OCC(=O)NCCCN(C)C)cc(C)c1Br | -5% | -1% | -1% | -3% | 6% | 0.4% | -7% | 2% |
| Cc1ccc(OCC(=O)Nc2cccc(C)n2)c(C)c1 | u | -5% | 10% | -4% | -3% | 0.6% | 40%[activator] | -10% |
| Cc1ccc(NC(=O)c2sc3nc(CCl)[nH]c(=O)c3c2C)c(C)c1 | -28%[46.1 µM] | 0% | 11% | 7% | x | x | u | x |
| O=[N+]([O-])c1ccc(S(=O)(=O)Nc2ccc3c(c2)OCCO3)cc1 | x | -1% | x | 37% | x | x | 10% | -34% |
| COc1ccc(-c2ccc(NS(=O)(=O)c3ccc(NC(C)=O)cc3)cc2)nn1 | x | x | u | x | -2% | -1.6% | 16% | x |
| Cc1ccc(C)c(CN2C(=O)c3ccccc3S(=O)c3ccc(C(=O)N(C)Cc4ccccc4)cc32)c1 (stereo unspecified) | u | x | u | x | -1% | -1.8% | -11% | x |
| CC(C)NS(=O)(=O)c1ccc(OCC(=O)N2CCN(c3cccc(Cl)c3)CC2)cc1 | u | x | u | x | u | -1.2% | u | x |
| Cc1ccc(C)c(N2CCN(c3nc4c(S(=O)(=O)c5ccccc5)nnn4c4ccc(Cl)cc34)CC2)c1 | 2%[46.1 µM] | x | x | x | -9% | 0.2% | 0% | x |
| O=C(O)c1cccnc1Sc1ccc(Br)cc1 | 5%[46.1 µM] | -1% | 6% | -11% | x | x | 12% | -6% |
| O=C(c1ccccc1)c1cnc(Nc2ccc(Cl)c(Cl)c2)s1 | 6% | 1% | 7% | -12% | u | 3.6% | 0% | 4% |
| c1ccc(C2(c3ccccc3)OCC(Cn3cncn3)O2)cc1 (stereo unspecified) | -45% | 9% | u | 3% | -2% | -2.7% | -13% | 0% |
| O=C(COc1ccc(Cl)cc1Cl)NCc1ccco1 | -17% | 3% | u | u | 0% | -6.8% | 28% | -21% |
| O=C1NCCN1CCNS(=O)(=O)c1cc(C(F)(F)F)cc(C(F)(F)F)c1 | x | -3% | x | 7% | x | x | 27% | 3% |
| O=C(c1cnn2c(C(F)F)cc(C3CC3)nc12)N1CCc2ccccc2C1 | u | -2% | u | 8% | 4% | -3.3% | u | -48% |
| Cc1cccc2[nH]c(SCC(=O)O)nc12 | -1%[46.1 µM] | -1% | 5% | -9% | x | x | -12% | x |
| CC(=O)c1cccc(NC(=O)c2cc(C)no2)c1 | x | -6% | x | 8% | -19% | -3.1% | -7% | -5% |
| O=C(Nc1ccccc1)OCCCCOC(=O)Nc1ccccc1 | -2% | x | 9% | -5% | x | x | -8% | x |
| Cc1cc(C)cc(OCC(=O)NNC(=S)NC(=O)C2CC2)c1 | u | 0% | -17%[46.1 µM] | -16% | x | x | u | -112% |
| COc1cc(/C=C/c2cc[n+](C)cc2)ccc1OCC(=O)Nc1ccc(Cl)c(Cl)c1 | u | -5% | -27% | u | x | x | -16% | -6% |
| CC(C)c1ccc(NC(=S)NCc2ccc3c(c2)OCO3)cc1 | -27%[46.1 µM] | -14% | 21%[46.1 µM] | 4% | x | x | 9% | x |
| Cc1ccc(OCC(O)CN2CCOCC2)cc1 (stereo unspecified) | x | 5% | x | 11% | x | x | 3% | 3% |
| CN(C)CCN1C(=O)c2oc3ccc(F)cc3c(=O)c2C1c1ccncc1 (stereo unspecified) | x | -1% | x | 10% | -7% | 6.8% | -22% | 0% |
| Cc1cccc(OCC(=O)NCC(=O)N/N=C/c2c(C)[nH]c3ccccc23)c1 | x | 0% | x | -6% | x | x | u | -1% |
| CCN(c1cccc(C(F)(F)F)c1)S(=O)(=O)c1ccc2c(c1)CCN2C(=O)C1CC1 | u | -33% | u | -15% | 9% | -7.3% | 14µM* | -82% |
| CC(C)(C)c1nnc(NC(=O)CN2C(=O)C3C4C=CC(C4)C3C2=O)s1 (stereo unspecified) | u | -2% | 15% | 7% | 11% | 4.5% | -15% | -10% |
| S=c1[nH]nc(-c2ccco2)n1/N=C/c1cccs1 | 22% | -16% | 8% | 9% | -9% | -4.0% | -14% | -15% |
| COc1ccccc1NC(=O)Cc1c(F)cccc1Cl | u | 24% | 28% | -8% | 1% | -4.5% | -7% | 1% |
| CN(C(=O)COC(=O)/C=C/c1ccc(C(F)(F)F)cc1)c1c(N)n(Cc2ccccc2)c(=O)[nH]c1=O | 13% | -2% | 5% | -28% | x | x | -16% | x |
| Nc1nc(-c2cccs2)c(-c2cccs2)s1 | x | -7% | x | 0% | x | x | 4% | -1% |
| CSCc1nnc2n1-c1ccc(Cl)cc1C(c1ccccc1)=NC2 | -21% | 1% | u | -10% | 11% | -1.9% | 0% | -7% |
| Cc1ccc(-n2ncc(C(=O)N3CCN(C(=O)c4ccco4)CC3)c2C2CCN(C(=O)OC(C)(C)C)CC2)cc1 | x | x | -2%[46.1 µM] | x | -7% | -0.7% | -22% | x |
| C(#CCN1CCC(Cc2ccccc2)CC1)COCCOCc1ccccc1 | u | -18% | 16% | 11% | 11% | -1.0% | -27% | -2% |
| COc1ccc(C(CNC(=O)c2cccc(S(=O)(=O)N3CCCc4ccccc43)c2)N(C)C)cc1 (stereo unspecified) | u | x | u | 9% | x | x | -2% | x |
| CCC(=O)Nc1nnc(CSCc2ccccc2)s1 | 10% | -4% | 2% | 9% | 0% | 1.3% | -2% | -7% |
| COc1ccc(-n2c(C)cc(C(=O)CSc3ccc(NC(C)=O)cc3)c2C)cc1 | -1% | -12% | u | 28% | u | -7.4% | 0% | -11% |
| Cc1cc2c(cc1S(=O)(=O)N1CCN(c3cccc(C)c3C)CC1)OCC(=O)N2 | x | -8% | x | -5% | x | x | -30% | 5% |
| CSCCC(NC(=O)c1ccccc1Br)C(=O)N1CCCC(C(F)(F)F)C1 (stereo unspecified) | -10% | 0% | 8% | -22% | x | x | -21% | 3% |
| COC(=O)C(CC(=O)c1ccc(Cl)cc1)c1ccc(C)cc1 (stereo unspecified) | 6% | -40% | -18% | 3% | -7% | -7.8% | 18% | -10% |
| O=C1/C(=C\c2ccsc2)NC(=S)N1c1ccccc1 | -9%[46.1 µM] | 7% | 8%[46.1 µM] | 0% | x | x | -16% | x |
| COCCCN1CCc2nc(SCC(=O)Nc3ccc(C)c(Cl)c3)[nH]c(=O)c2C1 | -3%[46.1 µM] | x | 16%[46.1 µM] | x | 1% | -2.1% | u | x |
| O=C1CC(C(=O)Nc2ccccc2)C2(CCCCC2)O1 (stereo unspecified) | u | 18% | 4% | -1% | 0% | 4.8% | -19% | 5% |
| CS(=O)(=O)N(Cc1ccccc1)c1ccc(C(=O)NCc2cccnc2)cc1 | -1% | -3% | 1% | 1% | -2% | 1.9% | -16% | 7% |
| COc1ccc(-c2noc(N3CCCC(C(=O)Nc4cc(F)ccc4F)C3)n2)cc1 (stereo unspecified) | x | 4% | x | -3% | x | x | -8% | 0% |
